# StopGo RLuc: FMDV 2A StopGo reporter, Renilla signal. HEK cells with a luciferase reporter of 2A StopGo recoding. 120,000 compounds, 0.32% hits. Potency, µM (top dose mostly 57.5 µM), for inactives: at the highest dose signal change, negative = less light; active means well fitted falling curve with a large enough effect; inconclusive means small, poorly fitted or top-dose-only effect; inactive means no such curve, though single readings can be large or run the other way; further: nearly all actives have a fitted effect of over 55% in size; overnight with compound
# 2A firefly: lowers the firefly signal of an FMDV 2A StopGo reporter | HEK cells with a luciferase reporter of 2A StopGo recoding | Potency, µM (titrated, usually from 57.5 µM), without a hit: top-dose signal change, negative = less light | 120,000 compounds, 0.23% hits | AID 1745856; active = well fitted falling curve with a large enough effect; inconclusive = small, poorly fitted or top-dose-only effect; inactive = no such curve, though single readings can be large or run the other way; further: nearly all actives have a fitted effect of over 60% in size; overnight with compound
# Starred values were filed as active, the others as inactive; ? = inconclusive; & = joins results of further samples; [ ] = remark or other dose. On the % scale 0 is the no-effect control and ±100 the full control effect; potency means the concentration at half of the fitted maximal effect. A portion of the library. The share of hits here may be higher or lower than overall.
mol,2A firefly,StopGo RLuc
CN1CCN(CC(=O)N2CCNC(=O)C2CC(=O)Nc2ccc(Br)cc2)CC1 (configuration not stated),-1%,-12%
CSCC(=O)Nc1ccc(C(=O)NCC(F)(F)F)cc1,3%,-4%
NS(=O)(=O)c1ccc(NC(=O)C2Cc3ccccc3N2C(=O)c2ccccc2)cc1 (configuration not stated),-19%,-3%
CCN1CCSc2ccc(C(=O)NCc3cccc(Br)c3)cc21,0%,60%[activator]
Cc1ccc(C)c(CNS(=O)(=O)c2ccc3c(c2)C(C)(C)C(=O)N3C)c1,-1%,143%[activator]
CCc1nc2nc(C)cc(Nc3ccc(F)c(Cl)c3)n2n1,-17%,8%
CCC(C)NC(=O)Cn1c(=O)n(CCCC(=O)NCc2ccc(C)cc2)c(=O)c2ccccc21 (configuration not stated),8%,2%
Cc1ccccc1C(=O)Oc1c(Sc2ccccc2)c(C)nn1C(C)(C)C,-13%,4%
CCCNc1c(NC(=O)c2ccc(OCC)c(OCC)c2)c(=O)oc2ccccc12,25%,23%
Cc1cccc(-c2nc(Nc3ccc(C(=O)O)cc3)c3ccccc3n2)c1,139%[activator],41%[activator]
CC1CCc2sc(C(=O)OCC(=O)c3ccc4c(c3)OCCO4)cc2C1 (configuration not stated),25%,-5%
O=C(Cc1c[nH]c2ccccc12)Nc1cc(F)cc(F)c1,64%[activator],0%
O=c1c2cc(Cl)cc(Cl)c2ncn1Cc1ccc(F)cc1Cl,17%,6%
Cc1cc(NC(=O)c2nc3ccccc3nc2N2CCCC2)ccc1Br,3%,7%
O=C(NCCS(=O)(=O)N1CCN(c2ccccc2F)CC1)C1CC(=O)N(c2ccccc2)C1 (configuration not stated),-13%,0%
Cc1cc(C)c(NC(=O)CCCN2C(=O)COc3ccc(C)cc32)c(C)c1,19%,0%
CC(C)c1nc2cc(NC(=O)c3ccc[nH]c3=O)ccc2o1,-18%,15%
COc1ccc(N2CC(NC(=O)/C=C\c3ccc4c(c3)OCO4)CC2=O)cc1OC (configuration not stated),14%,1%
CCOC(=O)c1cc(S(=O)(=O)N(C)CC(=O)Nc2cccc(C)c2C)cn1C,6%,8%
O=C(Cc1c[nH]c2ccccc12)NCc1nc2ccccc2[nH]1,65%[activator],0%
Cc1noc(C)c1CCC(=O)Nc1nc(C(C)C)cs1,41%[activator],16%
Cc1cc2oc(=O)cc(COC(=O)CCCN=C3NS(=O)(=O)c4ccccc43)c2cc1C,2%,7%
O=C(O)CC12CC3CC(C1)CC(C(=O)O)(C3)C2,-5%,4%
COc1ccc(Cn2ccc3nc(C)c(C(=O)Nc4cc(OC)c(OC)c(OC)c4)cc3c2=O)cc1,-4%,10%
CC(c1cccc(NC(=O)c2ccccc2)c1)N(C)CC(=O)NC(=O)Nc1ccccc1 (configuration not stated),?,?
CC(C)=NNC(=O)c1ccc(Cl)cc1,0%,21%
O=C(O)CC(NC(=O)c1ccco1)c1ccccc1 (configuration not stated),-7%,5%
O=C(c1cccs1)N1CCCc2cc(NS(=O)(=O)c3ccc(F)cc3F)ccc21,-8%,48%[activator]
N#CC(Cc1cccnc1)C(=O)Nc1cccc(Cl)c1 (configuration not stated),1%,57%[activator]
Cn1c(=O)c2c(nc(NCCc3ccccc3)n2Cc2cccc(Br)c2)n(C)c1=O,40%[activator],-12%
N#Cc1cccc(C(=O)NCCCc2nc3ccccc3[nH]2)c1,0%,7%
Cc1ccc(CSC2=Nc3ccccc3C3=NC(CC(=O)NC4CCCCC4)C(=O)N23)cc1 (configuration not stated),92%[activator],171%[activator]
Cc1ccc(-n2c(C)nc3c(cnn3-c3ccccc3C)c2=O)cc1F,65%[activator],0%
COc1ccc(S(=O)(=O)N2CCC(c3nc4ccccc4s3)CC2)cc1OC,-3%,-8%
CN(Cc1ccc(C(N)=O)cc1)C(=O)c1cc(=O)[nH]c2ccccc12,9%,-10%
Cc1ccccc1C(=O)NCc1nc2cccnc2n1Cc1ccccc1,-10%,2%
COc1ccc(-n2nc(C(=O)N3CCN(c4ccc(F)cc4)CC3)c3c4ccccc4n(C)c3c2=O)cc1,-9%,-9%
COc1ccc(N2C(=O)CSC23C(=O)N(Cc2ccc(C)cc2)c2ccccc23)cc1Cl (configuration not stated),?,-17%
COc1ccc(CCNC(=O)CCc2c(C)c3cc4c(C)coc4c(C)c3oc2=O)cc1OC,10%,-10%
Cc1ccc2nc(-c3ccccc3Cl)cc(C(=O)NC3CC3)c2c1,-13%,4%
CC(=O)Nc1cccc(-c2nnc(SCC(=O)c3ccc([N+](=O)[O-])cc3)o2)c1,55%[activator],5%
COc1cc(CCC2CCN(C(=O)Nc3ccccc3OC)CC2)cc(OC)c1,6%,-8%
Cc1ccc2c(c1)N(C(=O)Nc1cccc(C)c1C)CCO2,-10%,-15%
CCCCS(=O)(=O)c1oc(-c2cccs2)nc1S(=O)(=O)c1ccc(F)cc1,28µM*,-5%
CC(=O)N1CCC(NC(=O)Cc2nc(-c3ccccc3)oc2C)CC1,-4%,-2%
CCN1CCN(C(c2cccc(F)c2)c2c(O)cc(C)n(CCOC)c2=O)CC1 (configuration not stated),-2%,69%[activator]
COc1ccc(S(=O)(=O)c2cn(C)c3cc(N4CCCCCC4)c(F)cc3c2=O)cc1,-7%,2%
CCOc1ccc(C2C(C(=O)OC)=C(C)NC3=C2C(=O)c2ccccc23)cc1OC (configuration not stated),26%,29%
Cc1ccc(CN(Cc2cc(=O)n3[nH]c(-c4cccc(C)c4)cc3n2)CC(C)C)cc1,?,25µM*
O=C(CCC(=O)OCC(=O)c1cccc([N+](=O)[O-])c1)Nc1cc(C(F)(F)F)ccc1Cl,-4%,3%
CCOC(=O)Cn1c(=O)oc2cc(S(=O)(=O)N3CCN(c4ccc(Cl)cc4)CC3)ccc21,4%,-12%
C/C(=N\NC(=O)c1ccc(C(C)(C)C)cc1)c1ccc(C)cc1,95%[activator],16%
Cc1ccccc1NC(=O)Cn1c(C)cc2ccccc21,-6%,-3%
O=S1(=O)NC(=NCCc2ccccn2)c2ccccc21,27%,49%[activator]
CCN(CC)c1ccc(NC(=O)CN2CCN(CC(=O)Nc3ccc(Cl)cc3)CC2)cc1,-12%,-16%
NC1(C(=O)O)CCC1,-11%,-2%
Cc1cccc(C(=O)Nc2ccc(S(=O)(=O)N3CCC(c4nc5ccccc5s4)CC3)cc2)c1,-23%,-14%
C/C(=N\NC(=O)C1CC1c1ccccc1)c1ccc(C2CCCCC2)cc1 (configuration not stated),-5%,7%
ClC1=CC[C@@H]2CN(CCN3CCOCC3)C[C@@H]2C1,2%,0%
Cc1nn(C(=O)C2CCCN2S(=O)(=O)c2ccc(Cl)cc2)c(C)c1Sc1ccccc1 (configuration not stated),13%,-1%

# New compounds follow:
mol,2A firefly,StopGo RLuc
Cc1cc(C)c(C)c(S(=O)(=O)N2CCN(C(=O)Cc3c(C)nn(C)c3C)CC2)c1C,?,?
CCc1ccc(NC(=O)C(C#N)=C2CCC(C(C)(C)C)CC2)cc1 (configuration not stated),100%[activator],31%[activator]
CC(C)(C)OC(=O)N1CCC(c2nnc(SCc3ccccc3)o2)CC1,4%&9%,-1%&1%
Cc1ccc(/C(O)=C2\C(=O)C(=O)N(CCCO)C2c2ccc(Cl)cc2)cc1 (configuration not stated),-6%,-9%
COc1ccc2ccc(OC(=O)CCNC(=O)C(C)(C)C)cc2c1,30%,-5%
COc1cc(C2CC(=O)Nc3c2cnn3-c2nc3ccccc3s2)cc(OC)c1O (configuration not stated),58%[activator],-9%
O/N=C1\C(=C\c2ccccc2)N2CCC1CC2,19%,14%
CC(=O)Nc1cccc(-n2nnnc2SCc2nc3ccccc3[nH]2)c1,26%,-3%
Cc1ccccc1CN1C(=O)C(O)(CC(=O)c2cccnc2)c2ccccc21 (configuration not stated),27%,0%
CCN(CC)CCCOC(=O)c1ccc(OC)cc1O,-4%,-1%
Cc1cc(C)c(NC(=O)Cn2ccn(-c3cccc(Cl)c3)c(=O)c2=O)c(C)c1,-5%,-2%
Cc1cc(C(=O)N2CCCCCC2)sc1C,30%[activator],17%
CCCCCCC(=O)Nc1cc2nc3c(nc2cc1C)c(=O)n(C)c(=O)n3C,-2%,5%
CCOc1ccc(NC(=O)Cc2ccc(NC(=O)N3CCCCc4ccccc43)cc2)cc1,-1%,2%
Cc1ccc2nc(C)c(C(=O)N(C)CCOc3ccccc3F)cc2c1,-4%,14%
CCCCN(CCCC)C(=O)c1cc2c(=O)n3cccc(C)c3nc2s1,2%,18%
O=C(O)CCNC(=O)c1cc(C2CC2)nc2ccccc12,-4%,-14%
Cn1c(=O)c2c(-c3ccccc3)n3c(c2n(C)c1=O)C(c1ccc([N+](=O)[O-])cc1)Nc1ccccc1-3 (configuration not stated),-4%,-14%
CN(c1ccccc1)S(=O)(=O)c1ccc(C(=O)OCn2nnc3ccccc3c2=O)cc1,-1%,-17%
COC(=O)C1C(=O)CC(C)(O)C(C(=O)OC)C1c1ccc(C)cc1 (configuration not stated),4%,-2%
Cc1cc(O)c2c(CN3CCN(Cc4ccccc4)CC3)cc(=O)oc2c1,?,?
CC(C)(C)c1ccc(C(=O)Nc2ccc(Cl)cc2C(=O)c2ccccc2)cc1,0%,?
O=C(CCOc1cc(Cl)ccc1Cl)Nc1ccc(-n2cnnn2)cc1,9%,2%
O=C(CCc1ncc(-c2c(F)cccc2F)o1)Nc1ccncc1,11%,1%
CN(CCc1noc(C(=O)NCc2ccc(F)cc2)n1)C(=O)Nc1cccc(Br)c1,9%,10%
CC(C(=O)NCc1ccccc1Cl)N(c1ccccc1)S(C)(=O)=O (configuration not stated),2%,20%
CCn1ccc(C(=O)N2CCN(c3ccccc3OC)CC2)n1,10%,10%
CS(=O)(=O)c1ccc(C(=O)Nc2c(Cl)cc(NC(=O)c3ccco3)cc2Cl)cc1,19%,1%
OC(CC#CCN1CCC(c2ccccc2)C1)(c1ccccc1)c1ccccc1 (configuration not stated),?,?
CCc1nnc(NC(=O)c2cccc3ncccc23)s1,0%,6%
Cc1ccc(CN2CCCN(C(=O)c3nn(C)c(=O)c4ccccc34)CC2)cc1,?,?
Cc1ccc(C(=O)N2CCC(C)CC2)cc1NC(=O)c1nsc2ccccc12,-7%,7%
Cc1ccc(CNC(=O)c2c[nH]n3c(=O)c(Cc4ccc(F)cc4Cl)c(C)nc23)cc1,-26%,0%
CN(C)S(=O)(=O)c1cccc(NC(=O)c2nn(Cc3ccccc3)c(=O)c3ccccc23)c1,2%,26%
CC(C)c1nc(OCC(=O)N2CCCC2)c(C#N)c2c1CCCC2,-13%,-7%
CCCCn1c(=O)[nH]c(=O)c2c1nc(-c1ccc3ccccc3c1)n2CC,-8%,-8%
Cc1cccc(C(=O)NC(Nc2cccc(Cl)c2)C(Cl)(Cl)Cl)c1 (configuration not stated),4%,10%
Cc1ccc(N(Cc2cc3ccccc3[nH]c2=O)C(=O)C(C)(C)C)cc1C,-4%,-12%
O=C(CCc1ncc(-c2ccccc2F)o1)Nc1ccc(N2CCOCC2)cc1N1CCOCC1,6%,2%
CCC(CC)C(=O)Nc1nnc(S(=O)(=O)N2c3ccccc3CC2C)s1 (configuration not stated),-14%,1%
c1ccc2c(c1)OCCOCCOCCOCCOc1ccccc1OCCO2,-13%,-2%
CC(=O)NC1=NN(C(C)=O)C(c2cc(Br)ccc2OCc2ccc(C)cc2)S1 (configuration not stated),1%,0%
Cc1ccc(C)c(S(=O)(=O)Nc2nc3ccccc3nc2Nc2ccc3c(c2)OCCO3)c1,1%,7%

# Single records, from the list above.
# Profile of `CN(CCc1noc(C(=O)NCc2ccc(F)cc2)n1)C(=O)Nc1cccc(Br)c1` = 2A firefly: 9%; StopGo RLuc: 10%
# Profile of `Cc1ccc(C(=O)N2CCC(C)CC2)cc1NC(=O)c1nsc2ccccc12` = 2A firefly: -7%; StopGo RLuc: 7%
# Profile of `OC(CC#CCN1CCC(c2ccccc2)C1)(c1ccccc1)c1ccccc1` (configuration not stated) = 2A firefly: ?; StopGo RLuc: ?

# Fetched by structure from the entries so far:
mol,2A firefly,StopGo RLuc
N#Cc1cccc(C(=O)NCCCc2nc3ccccc3[nH]2)c1,0%,7%
CCC(C)NC(=O)Cn1c(=O)n(CCCC(=O)NCc2ccc(C)cc2)c(=O)c2ccccc21 (configuration not stated),8%,2%
O=c1c2cc(Cl)cc(Cl)c2ncn1Cc1ccc(F)cc1Cl,17%,6%
CCc1nnc(NC(=O)c2cccc3ncccc23)s1,0%,6%
Cc1cc(O)c2c(CN3CCN(Cc4ccccc4)CC3)cc(=O)oc2c1,?,?

# Individual results from above.
# 2A firefly, CN(CCc1noc(C(=O)NCc2ccc(F)cc2)n1)C(=O)Nc1cccc(Br)c1 is entered as 9%
# StopGo RLuc, O=C(CCc1ncc(-c2ccccc2F)o1)Nc1ccc(N2CCOCC2)cc1N1CCOCC1 is entered as 2%
# StopGo RLuc, CCc1nnc(NC(=O)c2cccc3ncccc23)s1 is entered as 6%
